Compound activity deposited in PubChem by ICCB-Longwood Screening Facility, Harvard Medical School.
Bm FixLJ act – B. multivorans fixK reporter activation. B. multivorans fixK-promoter GFP reporter, 18 h; active compounds read high. z-score (concentration not given with the values). hit rate 0.3% among 29,000. AID 1918990;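 active means replicate mean overnight rise in green fluorescent reporter signal, 3 or more SD over negative controls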;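 further: score is relative to vehicle wells of the plate; 300 nL library stock went into each well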
An asterisk follows results filed as active; & = joins results of further samples. A portion of the library; the hit share may differ from the screen's.

compound	Bm FixLJ act
Cc1ccc(C(=O)N2CCC(C(=O)NCC(c3ccc(C)cc3)N(C)C)CC2)cc1 (stereo not given)	0.16
Cc1cc2nc(-c3cc(NC(=O)c4cc5ccccc5o4)ccc3Cl)oc2cc1C	-0.12
COc1ccc(N2CCN(c3cc(C)nc4nc(-c5ccc(C)cc5)nn34)CC2)cc1	-0.56
Cc1nonc1OCCNC(=O)c1csc(-c2cccs2)n1	-0.7
COc1ccc(NC(=O)C2CCN(c3cc(C)nc4c(-c5ccc(Cl)cc5)c(C)nn34)CC2)cc1	-2.5
Cc1ccc(Nc2c3c(nc4nncn24)CCC3)cc1	-1.7
CCC1Oc2ccc(C)cc2N(CC(=O)NCc2ccc(OC)cc2)C1=O (stereo not given)	-1.6
COC(=O)c1ccc([C@H]2Nc3ccc(S(=O)(=O)Nc4ccc(C)cc4)cc3[C@H]3C=CC[C@H]32)cc1	-0.75
C=CCN1CC[C@]23c4c5ccc(O)c4O[C@H]2C(=O)CC[C@@]3(O)[C@H]1C5	-1.4
CCOc1cccc(C2c3c(oc4ccc(F)cc4c3=O)C(=O)N2CCc2ccc(OC)cc2)c1 (stereo not given)	-0.71
Cc1cccc(NC(=O)NCc2nc(-c3ccncc3)n[nH]2)c1C	-1.2
Cc1ccc(NCc2ccccc2-c2nnc(-c3ccccc3Cl)o2)c(C)c1	-1.4
CC(C)CC1C(=O)N2CCC[C@H]2C2(O)O[C@](NC(=O)C3C=C4c5cccc6[nH]c(Br)c(c56)C[C@H]4N(C)C3)(C(C)C)C(=O)N12 (stereo not given in full)	0.18
Cc1cc(CC2COCC2NC(=O)c2ccc3nccn3c2)on1 (stereo not given)	-1.6
CCOc1ccc(NC(=O)CC2C(=O)N(c3cccc(C)c3)C(=O)N2CCC2=CCCCC2)cc1 (stereo not given)	3*
O=C(c1ccc2c(c1)N(Cc1ccccc1F)C(=O)c1ccccc1S2(=O)=O)N1CCC(Cc2ccccc2)CC1	-0.26
COc1ccccc1C(=O)NC1(C(F)(F)F)NC(=O)N(CCc2ccccc2)C1=O (stereo not given)	-2.1
FC(F)(F)c1ccc2c(c1)ncc1c(-c3ccccc3)nn(-c3ccccc3)c12	0.64
COc1ccccc1-c1nc(SCC(=O)Nc2ccc(C)c(C)c2)n[nH]1	-2.7
CC(C)(C)NCC(O)COc1cccc2c1CCCC2=O (stereo not given)	1
CCOC(=O)C1=C(CN2CCN(c3ccc(OC)cc3)CC2)NC(=O)NC1c1ccc(Cl)cc1 (stereo not given)	-1.3
CCc1ccc(-c2nc(CN3CCCC(C(=O)N4CCN(c5cc(Cl)ccc5C)CC4)C3)c(C)o2)cc1 (stereo not given)	-0.75
CC(C)Cc1cc(CN2CCn3nc(CNC(=O)C4CCC4)cc3C2)no1	-0.96
CSc1nnc2n(-c3cccc(C)c3)c(=O)c3c4c(sc3n12)CCCC4	-1.7
Cc1ccc2nc(-c3cccnc3)c(Nc3ccc(C(C)C)cc3)n2c1	-0.36
CCc1nnc2c3ccccc3nc(Nc3ccccc3OC)n12	0.13
O=C(c1ccc2c(c1)N(Cc1ccccc1)C(=O)c1ccccc1S2(=O)=O)N1CCC(Cc2ccccc2)CC1	-0.28
COc1ccc(CN2CCN(c3ncccc3C#N)CC2)cc1Cn1cncn1	-2.4
Cc1cccc2[nH]c(CCNC(=O)N3CCN(c4ncc[nH]c4=O)CC3)nc12	0.71
CCC(C(=O)N1CCN(c2cc(C)ccc2C)CC1)n1nc(C)n2c(cc3occc32)c1=O (stereo not given)	-2

2 entries from above, with each value named.
Cc1cccc2[nH]c(CCNC(=O)N3CCN(c4ncc[nH]c4=O)CC3)nc12
  Bm FixLJ act: 0.71

Cc1nonc1OCCNC(=O)c1csc(-c2cccs2)n1
  Bm FixLJ act: -0.7

(cont.)
compound	Bm FixLJ act
COc1ccc(-c2noc(CCC(=O)Nc3ccccc3Cl)n2)cc1OC	-1
COc1ccc(CCNC(=O)c2cnc3sc(N4CCCCCC4)nn3c2=O)cc1	-0.78
O=C(CCS(=O)(=O)c1ccccc1)N1CCCCC1CCc1cccc(O)c1 (stereo not given)	0
O=C(Cn1ncc2c3ccccc3n(Cc3ccc(F)cc3)c2c1=O)NC1CCCCCC1	-2.4
O=C(c1ccc2nccn2c1)N(CCO)Cc1ccccc1F	-1.2
COc1ccccc1CNC(=O)c1cc2sccc2n1Cc1ccc(Cl)cc1	-0.4
CC(NC(=O)c1cn(C2CCC(N)CC2)nn1)c1ccc(-n2cncn2)cc1 (stereo not given)	-0.38
CCN1CCSc2ccc(C(=O)NCc3ccccc3Br)cc21	1.4
CCOC(=O)c1sc2ncn(CC(=O)Nc3ccc(C)cc3C)c(=O)c2c1C	0.1
Cc1cc(=O)n2c(C(=O)Nc3ccc(C)c(C)c3)c(C(=O)Nc3ccccc3)sc2n1	-0.73
Cc1nc2cc(-c3ccccc3)nn2c(C)c1CCC(=O)NCCc1ccccc1	-1.8
O=C(NCc1ccncn1)c1cccc(S(=O)(=O)N2CCC2)c1	-0.4
CN(Cc1ccccc1)C(=O)C(=O)Nc1ccc2nc3n(c(=O)c2c1)CCCCC3	-2.3
CCC(=O)N1c2ccc(S(=O)(=O)CCC(=O)Nc3ccc(Br)c(C)c3)cc2CC1C (stereo not given)	-1.6
Cc1ccc(C(=O)NCCc2nc(N)cc(=O)[nH]2)n1C(F)F	-0.52
Cc1cccc2c1-c1sc(C(=O)N3CCN(c4ccccc4)CC3)cc1CO2	-0.05
O=C(Nc1ccc(-c2nc3cc(Cl)ccc3o2)cc1)c1cc(Br)ccc1Cl	-1.1
O=C(O)c1ccc(NC(=O)c2cn(-c3ccccc3)nc2-c2ccc(Br)cc2)cc1	-0.52
CN1CCN(C(=O)c2ccc3c(c2)N(Cc2ccc(F)cc2)C(=O)c2ccccc2S3(=O)=O)CC1	0.75
CNC(=O)c1cc(S(=O)(=O)NCCC(=O)Nc2ccc(C)cc2C)cs1	0.86
CCC(CC)C(=O)N1c2ccccc2C(C)(c2ccccc2)CC1(C)C (stereo not given)	-0.53
Cc1cc2cc3c(C)cc(=O)oc3c(C)c2o1	-1.8
O=C(Nc1cc2c(cc1C(=O)c1ccc(Br)cc1)OCCO2)c1ccc(Cl)cc1	0.97
Cc1cccc(NC(=O)Cn2c(=O)n(CCC(C)C)c(=O)c3cccnc32)c1	0.56
COc1cccc(-c2cc(C(=O)N3CCN(c4ccccc4OC)CC3)no2)c1	-1.9
COC(=O)c1ccc(Nc2nc(-c3ccccc3Cl)nc3ccccc23)cc1	-2.4
COc1ccc(CC(=O)Nc2nnc3nc(C)ccn23)c(OC)c1	-0.66
COc1cccc(C(=O)Nc2nc3nc(C)c(C)c(=O)n3[nH]2)c1	-0.63
COc1ccc2oc(=O)cc(CN3CCN(c4ccccc4OC)CC3)c2c1	-3.6
COc1ccc2c(c1)CCc1c(C(=O)Nc3cc(C)ccc3O)noc1-2	0.62
O=C(Nc1ccc(-c2nc3ccccc3o2)c(O)c1)c1cc(Cl)ccc1Cl	-0.64
CCN1CCN(c2ccc(C(=O)N3CCCC(C(=O)CC(C)C)C3)cn2)CC1 (stereo not given)	-2
CCc1cccc(NC(=O)CN(c2ccc(C)cc2)S(=O)(=O)c2cccs2)c1	1.2
Cc1ccc(C2c3c(-c4cc(C)ccc4O)n[nH]c3C(=O)N2Cc2ccco2)cc1 (stereo not given)	0.83
CN1C[C@@H]2CC(N(C)Cc3nc(N)c4c5c(sc4n3)CCCC5)C[C@H]2CC1=O (stereo not given in full)	-0.56
Cc1cccc(NC(=O)CSc2nnc(CNC(=O)c3c(F)cccc3Cl)o2)c1C	-2.1
CCOc1ccc(C(=O)Nc2c(C(=O)Nc3ccccc3OC)oc3ccccc23)cc1OCC	-1.8
CC(C)C12CN3CC(C(C)C)(CN(C1)C3c1ccc(OCc3ccccc3)cc1)C2=O (stereo not given)	-0.79
Cc1nc(SCC(=O)NCc2csc(-c3cnccn3)n2)n[nH]1	0.48
COc1ccc(CNC(=O)Cc2c(C)c3cc4c(C)coc4cc3oc2=O)cc1OC	-2.1
Nc1c(C(=O)Nc2ccc(OC(F)(F)F)cc2)sc2nc(-c3ccncc3)ccc12	-1.7
CCOc1ccc(C(=O)c2cn(CC(=O)Nc3ccc(Cl)cc3)c3cc4c(cc3c2=O)OCCO4)cc1	-1.4
COc1cc2c(C(=O)N3CCN(c4cccc(Cl)c4)CC3)cn(C)c(=O)c2cc1OC	-0.93
Cc1ccc2[nH]c(=O)c(CN(C(=O)c3cccc(Cl)c3)C(C)(C)C)cc2c1	-1.4
CC(C)c1cc(C(=O)N2CCC3(CC2)OCCc2c3[nH]c3ccccc23)on1	-1.1
COc1ccc(CNC(=O)CCc2nnc3n(CC(C)C)c(=O)c4ccccc4n23)cc1	-1.1
CCCOc1cccc(C(=O)Nc2cccc(NC(=O)c3ccc(Cl)cc3Cl)c2)c1	-0.51
COC(=O)c1ccccc1NC(=O)c1ccc(COc2ccccc2Cl)o1	-0.93
Cn1ccnc1CN1CCN(C(=O)NCc2ccc(Cl)cc2Cl)CC1	0.92
COc1ccc(CN2C(=O)N(c3cccc(C)c3)C(=O)C2CC(=O)Nc2ccc(F)cc2)cc1OC (stereo not given)	-2.2
Cc1cccc2oc(CNC(=O)Nc3ccc(CN4CCOCC4)cc3)nc12	0.04
CSCCC(NS(=O)(=O)c1cccs1)C(=O)Nc1ccc(C)c(Cl)c1 (stereo not given)	-1.7
COC(=O)c1cccnc1-n1c(=O)c2cccnc2n(CC(=O)Nc2ccc(C)cc2C)c1=O	1
CN1C(=O)C2(CCN(C(=O)C3CCCN(C(N)=O)C3)CC2)c2ccccc21 (stereo not given)	0.23
CCCOc1ccc(C(=O)Nc2cc(-c3nc4ccccc4[nH]3)ccc2C)cc1	-0.43
COc1ccc(NC(=O)Cn2ncc3c4ccccc4n(Cc4ccccc4)c3c2=O)cc1OC	-0.26
COc1cc([C@@H]2Nc3c(F)cccc3[C@@H]3C=CC[C@@H]32)cc(Br)c1OC	-0.36
CC1CCCN(c2c(S(=O)(=O)c3ccccc3)cnc3ccc(Cl)cc23)C1 (stereo not given)	0.18
CCOc1ccc(S(=O)(=O)N(CC(=O)Nc2ccc3c(c2)OCO3)c2ccccc2)cc1	-0.97
COc1cc2c(c(OC)c1)C(c1cccc(F)c1F)CC(=O)N2 (stereo not given)	-0.23

By substructure: those above containing a CF3 group
compound	Bm FixLJ act
COc1ccccc1C(=O)NC1(C(F)(F)F)NC(=O)N(CCc2ccccc2)C1=O (stereo not given)	-2.1
FC(F)(F)c1ccc2c(c1)ncc1c(-c3ccccc3)nn(-c3ccccc3)c12	0.64
Nc1c(C(=O)Nc2ccc(OC(F)(F)F)cc2)sc2nc(-c3ccncc3)ccc12	-1.7

Remaining list, next part.
compound	Bm FixLJ act
CCS(=O)(=O)c1nc(S(=O)(=O)c2ccc(C)cc2)c(NCCCOC)s1	-1.4
CC(C)c1ccc(Cn2c(COc3ccccc3)nc3ccccc32)cc1	-0.9
CCOc1ccc(NC(=O)C2CC(=O)N(c3ccc(C(C)C)cc3)C2)cc1 (stereo not given)	0.37
CC(C)c1ccc(CN2CCCC(O)(CN(C)CCc3ccccn3)C2=O)cc1 (stereo not given)	-0.71
Oc1ccccc1-c1nc(/C=C/c2ccccc2Cl)nn1-c1ccccc1	1.1
NC(=O)c1noc(CN2CCCC(C(=O)c3ccc4c5c(cccc35)CC4)C2)n1 (stereo not given)	-0.68
Cc1ccc(C)c(S(=O)(=O)c2nnn3c2nc(Nc2ccc(C)c(C)c2)c2ccccc23)c1	0.24
c1ccc2c(c1)ncc1nncn12	-1.5
Cc1ccc(S(=O)(=O)n2nc(-c3ccc(Cl)cc3)nc2NCc2ccc(F)cc2)cc1	0.74
CCc1nc(C)sc1CNC(=O)N(C)C(CC)c1cccnc1 (stereo not given)	-1.1
CCOC(=O)c1ccc(N2C(=O)c3[nH]nc(-c4ccccc4)c3C2c2ccc(CC)cc2)cc1 (stereo not given)	0.46
CN(C)C=NC(=O)c1cc2c(n(-c3ccccc3)c1=O)CC(C)(C)CC2=O	-0.64
CC(C)C(=O)N1CCC(Nc2nc(-c3cccnc3)nc3c2cnn3C)CC1	-0.93
Cc1ncc([N+](=O)[O-])n1CCO	-2.3&0.12
CN(C)c1cccc(C(=O)N2CC3CCC(C2)C3NC(=O)CCc2ccncc2)c1 (stereo not given)	1.7
CN(CC(=O)NCc1ccc(Cl)cc1)S(=O)(=O)c1ccc2c(c1)c(=O)n(C)c(=O)n2C	-0.38
Cc1sc(-c2ccno2)cc1S(=O)(=O)N1CCCN(C2CCCC2)CC1	1.3
CCC(=O)c1cc2c(cc1NC(=O)c1ccccc1F)OCCO2	-2.6
CC(C)N1CCCC2(CCN(C(=O)c3ccc(N(C)C)nc3)C2)C1=O (stereo not given)	-0.49
CNC(=O)c1ccc(NC(=O)COc2ccc(-c3nn(C)c(=O)c4ccccc34)cc2)cc1	-1.6
COc1cc(C(=O)N2CCCN(C(=O)c3cnc(C)cn3)CC2)ccn1	-0.52
COc1ccc2c(c1)cc1c(=O)n(CC(=O)NCCCc3ccccc3)nc(C)n12	-1.6
N#C/C(=C\c1ccc(-c2ccc(F)cc2F)o1)c1nc2ccccc2[nH]1	14*
Cc1cccc(C(=O)N2CCCC(c3nccn3CC3CC3)C2)n1 (stereo not given)	0.01
COc1ccc(C(=O)/C=C/c2cn(CC(O)CN3CCc4ccccc43)c3ccccc23)cc1 (stereo not given)	0.37
Cc1ccc(-n2c(CCC(=O)O)ccc2-c2cccs2)cc1Cl	0.66

Looked up above:
Cc1ncc([N+](=O)[O-])n1CCO – Bm FixLJ act: -2.3&0.12
CCS(=O)(=O)c1nc(S(=O)(=O)c2ccc(C)cc2)c(NCCCOC)s1 – Bm FixLJ act: -1.4
CN(CC(=O)NCc1ccc(Cl)cc1)S(=O)(=O)c1ccc2c(c1)c(=O)n(C)c(=O)n2C – Bm FixLJ act: -0.38
CCC(=O)c1cc2c(cc1NC(=O)c1ccccc1F)OCCO2 – Bm FixLJ act: -2.6
